Cruzain inh Det = inhibitors of Trypanosoma cruzi cruzain with detergent; P25779; purified cruzain, Z-FR-AMC fluorescence, 0.01% Triton; Potency, µM, inactives show max response, negative = inhibition, actives largely listed as inhibitors; actives 0.43% (n = 200,000);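 also: plate controls were neutral wells for no effect and buffer without enzyme for full effect; nearly all actives have a fitted effect of over 40% in size; top concentration of the series not given in the record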
Target sequence (P25779 123-467 limits assumed): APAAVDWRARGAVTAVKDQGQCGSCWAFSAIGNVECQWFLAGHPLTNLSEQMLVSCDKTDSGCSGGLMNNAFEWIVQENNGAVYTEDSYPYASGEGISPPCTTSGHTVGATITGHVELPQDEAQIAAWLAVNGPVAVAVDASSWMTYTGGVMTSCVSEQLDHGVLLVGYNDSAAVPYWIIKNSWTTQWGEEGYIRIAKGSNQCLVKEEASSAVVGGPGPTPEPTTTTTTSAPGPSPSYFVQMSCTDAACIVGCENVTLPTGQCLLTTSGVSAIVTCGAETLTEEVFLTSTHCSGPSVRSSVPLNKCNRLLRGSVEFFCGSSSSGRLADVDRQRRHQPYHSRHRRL
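Z-FR-AMC hydrolysis (2 uM substrate) by cruzain (1.5 nM) monitored kinetically at ex 360/em 450 nm after 15 min room-temperature compound exposure; 0.01% Triton X-100, pH 5.5, 5 mM DTT.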
RE007 growth inh = less growth of the S. pombe RE007 Vpr strain. S. pombe RE007 Vpr strain, BacTiter-Glo ATP luminescence, 24 h; control for the full effect not named in the record. Potency, µM (series often up to 92.2 µM), for inactives: at the top dose activity change, negative = less growth. actives 0.21% (n = 360,000). AID 651644; active = well fitted falling curve with a large enough effect; inconclusive = small, poorly fitted or top-dose-only effect; inactive = no such curve, though single readings can be large or run the other way;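 also: % is scaled to controls: 0 for no effect and ±100 for the full control effect; nearly all actives have a fitted effect of over 50% in size; the assay follows cell death caused by Vpr and the record does not say whether a fall means rescue or toxicity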
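Fission yeast RE007 carrying one integrated HIV-1 vpr copy, seeded at OD 0.01 in PMG+AL medium with 23 nL pinned compound. Grown 24 h at 30 degrees; viability read by BacTiter-Glo luminescence after 5 min.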
Marburg entry inh = blocks Marburg virus binding to or entry into cells; actives 1.8% (n = 300,000); Potency, µM (series often up to 37.8 µM), for inactives: at the top dose activity change, negative = inhibition, hits mostly inhibitors; Marburg virus pseudotyped entry inhibition, cell reporter; control for the full effect not named in the record; about a third of the inactives were read at about 46 µM; active = well fitted inhibition curve with a large enough effect; inconclusive = small, poorly fitted or top-dose-only effect, or effect the other way; inactive = flat fitted curve, though single readings scatter; tested in HEK293 cells; about a fifth of its hits are not listed in these tables; also: % is scaled to controls: 0 for no effect and ±100 for the full control effect; luciferase read-out
Lassa entry inh = blocks Lassa virus binding to or entry into cells; AID 540256; Lassa virus pseudotype entry inhibition, cell reporter; control for the full effect not named in the record; actives 1.2% (n = 300,000); Potency, µM (series often up to 37.9 µM), without a hit: at the highest dose activity change, negative = inhibition, hits mostly inhibitors; active means well fitted inhibition curve with a large enough effect; inconclusive means small, poorly fitted or top-dose-only effect, or effect the other way; inactive means flat fitted curve, though single readings scatter; tested in HEK293 cells; also: % is scaled to controls: 0 for no effect and ±100 for the full control effect; nearly all actives have a fitted effect of over 50% in size; luciferase read-out
SARS PLP yeast = inhibitors of SARS-CoV papain-like protease in yeast; actives 0.19% (n = 330,000); AID 485353; S. cerevisiae expressing SARS-CoV PLpro, growth rescue; control for the full effect not named in the record; Potency, µM (doses to about 32.9 µM), for the others: at the top dose activity, positive = growth rescue; active means well fitted rising curve with a large enough effect; inconclusive means small, poorly fitted or top-dose-only effect; inactive means no such curve, though single readings can be large or run the other way; also: 0% is about no effect; nearly all actives have a fitted effect of over 55% in size; growth read by luminescence after 48 h
StopGo reporter = FMDV 2A StopGo reporter, luciferase signal. human cells with a luciferase reporter of 2A StopGo recoding; control for the full effect not named in the record. Potency, µM (series often up to 57.9 µM), for the others: at the top dose signal change, negative = less light. actives 1.2% (n = 410,000). AID 1159524; active = well fitted falling curve with a large enough effect; inconclusive = small, poorly fitted or top-dose-only effect; inactive = no such curve, though single readings can be large or run the other way; tested in HEK293T cells; also: % is scaled to controls: 0 for no effect and ±100 for the full control effect; nearly all actives have a fitted effect of over 45% in size; luciferase light after 4 h
NS1 function inh = inhibitors of influenza NS1 protein function; S. cerevisiae slowed by influenza A NS1, growth recovery by OD600; Potency, µM (series often up to 46.1 µM), inactives show at the top dose activity, positive = more growth; actives 0.4% (n = 270,000); AID 2326; active means well fitted rising curve with a large enough effect; inconclusive means small, poorly fitted or top-dose-only effect; inactive means no such curve, though single readings can be large or run the other way; also: nearly all actives have a fitted effect of over 50% in size
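Recovery from NS1-induced slow growth read by OD600 in budding yeast switched to galactose assay medium (pH 6.0, -URA) at 1:100 dilution. Compound 23 nl per well; the matching strain lacking NS1 serves as control.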
Cruzain noTriton = blocks cruzain activity in detergent-free assay. purified cruzain, Z-FR-AMC fluorescence, no detergent. actives 2.3% (n = 200,000). P25779. Potency, µM, without a hit: max response, negative = inhibition, usual class: inhibitors;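 also: plate controls were enzyme without inhibitor for no effect and buffer without enzyme for full effect; nearly all actives have a fitted effect of over 40% in size; top concentration of the series not given in the record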
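Purified cruzain at 1.5 nM, pre-incubated 15 min with compound at room temperature in 100 mM sodium acetate pH 5.5, 5 mM DTT, 0.00005% Triton X-100. Reaction started with 2 uM Z-FR-AMC; AMC fluorescence increase over 60 s gives rate.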
Active calls of the source: *; ? = inconclusive; nt = no result given; [ ] = dose if it differs, or a comment. Unless noted, calls follow the shape of the dose curve; as a rule, active = well fitted curve in the direction sought with a large enough effect; inconclusive = small, poorly fitted or top-dose-only effect, or another doubt; inactive = no such curve, though single readings can be large; an effect the other way counts as inactive or inconclusive. Potency is read from the fitted curve at half-maximal effect.

SMILES	Cruzain inh Det	RE007 growth inh	Marburg entry inh	Lassa entry inh	SARS PLP yeast	StopGo reporter	NS1 function inh	Cruzain noTriton
CCOc1ccc(CCNC(=O)CCc2c(C)nc3ncnn3c2C)cc1OCC	1.4%	15%	0%	-2%	-15%	-2%	13%	0%
O=C(/C=C/c1ccco1)c1cccc([N+](=O)[O-])c1	nt	-23%	19%	-11%	nt	8%	nt	nt
Fc1ccc(/C=N/NC(=S)NCCc2ccccc2)cc1F	nt	0%	-7%[46.1 µM]	1%	2%	-30%	-3%	nt
CCNCCOC(c1ccccc1)c1ccccc1	-1.4%	6%	?	0%	5%	-7%	-3%	-19%
C=CCn1c(O)c(C(CC)=Nc2ccc(N(CC)CC)cc2)c(=O)[nH]c1=O	-5.3%	-10%	-1%	3.3µM*	0%	-20%	-6%	?
CC(=O)Nc1ccc(S(=O)(=O)Nc2nc3ccccc3nc2Nc2ccc(N)cc2)cc1	nt	-4%	nt	nt	1%	14%	19%	nt
COc1ccc(NC(=O)CN(C)C(=O)c2cc(-c3cccs3)nn2-c2ccccc2)cc1	nt	?	-8%	?	-18%	-28%	nt	nt
O=C(Nc1ccccc1)N1CCC(c2ccccc2)C1 (stereo not given)	0.8%	24%	-26%	?	9%	71%[activator]	-71%	-11%
CC(=O)c1c(O)c2ccccc2n(Cc2ccccc2)c1=O	nt	-7%	nt	nt	-2%	-11%	-7%	nt
O=C(NCCCN1CCN(c2cccc(Cl)c2)CC1)c1cccc(N2CCCC2=O)c1	-2.3%	-4%	?	-14%	-3%	?	0%	-8%
CCc1noc(C)c1C(=O)N1CCCC(CCC(=O)NCc2cccc(OC)c2)C1 (stereo not given)	nt	3%	-24%[46.1 µM]	-25%	0%	-11%	4%	nt
O=C(COc1ccc(F)cc1)Nc1ccc(S(=O)(=O)Nc2ncccn2)cc1	nt	26%	?	0%	-1%	-21%	nt	nt
COc1cc(NC(=O)C2CC2)c(C(=O)O)cc1OC	0.8%	-9%	12%	-2%	-7%	4%	3%	2%
O=C(NCC(=O)N(c1cccc(F)c1)C(C(=O)NC1CCCC1)c1ccco1)c1ccco1 (stereo not given)	nt	-11%	-7%[46.1 µM]	0%	2%	-7%	5%	nt
CN(Cc1ccccc1)C(=O)CN1C(=O)c2ccccc2C1=O	nt	62%	?	-6%	0%	11%	-7%	nt
O=C(CSc1ccc(-c2cccs2)nn1)Nc1cccc(F)c1	-7.8%	nt	nt	-11%[46.1 µM]	nt	-24%	nt	2%
O=C(COC(=O)c1cccs1)c1ccc2ccccc2c1	-8.8%	?	7%	24%	3%	58%[activator]	5%	-7%
O=C(c1ccc(OC2CCN(Cc3cccc(OCCO)c3)CC2)cc1)N1CCCC1	nt	2%	nt	nt	1%	-18%	3%	nt
Cc1ccc2oc(C(=O)Nc3ccc(S(=O)(=O)N4CCCCCC4)cc3)cc(=O)c2c1	-1.7%	nt	12%[46.1 µM]	9%[46.1 µM]	nt	-7%	nt	3%
OCc1ccccc1N=c1ssnc1Cl	-3.2%	nt	0%	nt	1%	nt	-1%	25µM*
Cc1cccc2cc(CN(Cc3ccc(F)cc3)C(=O)N3CCOCC3)c(=O)[nH]c12	-1.5%	12%	?	-2%	4%	nt	13%[9.22 µM]	10%
COc1ccccc1OCC(=O)NCCc1nc2ccccc2[nH]1	16µM*	7%	2%	1%	1%	-14%	-1%	13µM*
CC12c3ccccc3C(c3ccccc31)C1C(=O)N(Cc3cccnc3)C(=O)[C@H]12 (stereo not given in full)	-1.7%	-14%	-6%	-2%	-46%	0%	-4%	-2%
Cc1ccc(C(CC(=O)N2CCCC2)c2ccccc2)c(O)c1C (stereo not given)	-2.4%	0%	8%[46.1 µM]	0%	0%	40%[activator]	-8%	3%
CC(C)(C)NC(=O)CN(Cc1ccc2c(c1)OCO2)C(=O)CNS(=O)(=O)c1ccc(F)cc1	nt	1%	-8%[46.1 µM]	0%	4%	14%	2%	nt
C[C@@H](C(=O)Nc1cccc(S(=O)(=O)N2CCOCC2)c1)N1C(=O)C2CC=CCC2C1=O (stereo not given in full)	nt	6%	7%[46.1 µM]	21%[46.1 µM]	0%	-20%	8%	nt
COc1ccccc1N1CCN(C2CCCN(C(=O)CCC(C)=O)C2)CC1 (stereo not given)	nt	0%	nt	nt	-6%	-9%	-2%	nt
Cc1cc(C)c(S(=O)(=O)N2CCN(C(=O)c3ccc4c(c3)OCO4)CC2)c(C)c1	nt	1%	1%[46.1 µM]	?	1%	0%	-37%	nt
CCOC(=O)c1oc2ccccc2c1NC(=O)COc1ccc(F)cc1	25%	6%	?	-16%	19%	17%	-3%	13µM*
O=C(NCc1ccco1)c1ccc2c(c1)C(=O)N(C1CCCCC1)C2=O	1.3%	9%	?	-29%	9%	72%[activator]	0%	-3%
Cc1nc(SCC(=O)c2cccc([N+](=O)[O-])c2)n[nH]1	-2.3%	0%	?	-7%	2%	-4%	9%	-9%
O=C(CSc1nc2ccccc2c(=O)n1Cc1ccccc1)NCc1ccco1	2.7%	5%	-3%	3%	21%	-21%	?	-10%
COc1cccc(Nc2cc(N3CCOCC3)c3nonc3c2[N+](=O)[O-])c1	-3.2%	-5%	2%	7%	-5%	-18%	8%	24%
O=C(NCC1CCCO1)c1ccc(CSCc2cccc(F)c2)o1 (stereo not given)	nt	5%	-18%[46.1 µM]	?	0%	-21%	nt	nt
CCN(C(=O)C1CCCN(S(=O)(=O)c2c(C)noc2/C=C/N(C)C)C1)c1cccc(C)c1 (stereo not given)	-6.7%	nt	?	-29%[46.1 µM]	nt	6%	nt	?
COc1ccc(C(=O)NCCSc2ccc(C)cc2)cc1	-4.1%	4%	?	28%	-20%	24%	-15%	20%
Cc1nnc(NC(=O)c2ccccc2F)s1	8.3%	2%	?	6%	-4%	61%[activator]	-9%	4%
O=C(N/N=C/c1cc([N+](=O)[O-])ccc1O)Nc1ccccc1	nt	-7%	?	-28%	-2%	3%	-3%	nt
COC(=O)c1sccc1NC(=O)Nc1ccc(C)cc1	nt	?	0%[46.1 µM]	?	-10%	?	-39%	nt
COc1ccc2cc3cc(C(=O)N4CCN(C5CCCCC5)CC4)oc3nc2c1	nt	7%	nt	nt	7%	19%	-2%	nt
Cc1ccc(NC(=O)/C=C\C(=O)N(c2ccc(C(C)C)cc2)C(C(=O)NCc2ccco2)c2ccc(F)cc2)cc1 (stereo not given)	0.9%	nt	nt	-29%[46.1 µM]	nt	-28%	nt	22%
CC1CCc2nn(CC(=O)NC3CCCC(C)C3C)cc2C1 (stereo not given)	-1.5%	-19%	nt	nt	-7%	-8%	-39%	9%
Cc1cc(C)cc(SCc2noc(C(=O)NC(C)C)c2C(=O)O)c1	1.3%	-14%	nt	nt	3%	-14%	18%	-1%
CC(C)CC(NC(=O)c1ccco1)C(=O)Nc1ccc2c(c1)OCCO2 (stereo not given)	-2.2%	19%	-3%	nt	-1%	29%	-8%	-8%
COC(=O)[C@]1(S(=O)(=O)c2ccccc2)C[C@@H]2ON=C(c3ccc(OC)cc3)[C@@H]2C1	nt	?	nt	nt	-11%	13%	-2%	nt
CN1C(=O)C(O)(c2nnc(-c3ccccc3)o2)c2ccccc21 (stereo not given)	nt	16%	18%[46.1 µM]	4%	-5%	22%	-2%	nt
CC(C)CNC(=S)NNC(=O)c1csc2c1CCC(C)C2 (stereo not given)	4.2%	3%	?	-5%	0%	57%[activator]	-2%	0%
CCC(=O)Nc1ccc(NC(=O)CSc2nnc(C(C)C)n2C)cc1	-0.8%	4%	-1%[46.1 µM]	-1%	1%	-21%	2%	-5%
COc1ccc(CCNc2c3ccccc3nc3ccccc23)cc1OC	nt	-24%	?	?	-6%	-20%	-48%	nt
COc1ccc(C)cc1NC(=O)c1cc(S(=O)(=O)NCCC2=CCCCC2)ccc1F	1.3%	nt	nt	12%[46.1 µM]	nt	35%[activator]	nt	-7%

Following part.
SMILES	Cruzain inh Det	RE007 growth inh	Marburg entry inh	Lassa entry inh	SARS PLP yeast	StopGo reporter	NS1 function inh	Cruzain noTriton
CC(C)(C)C(=O)Nc1nnc(CSCc2ccccc2F)s1	3.6%	-16%	?	2%	10%	?	12%	-5%
Cc1cc(-c2ccc(Br)cc2)n[nH]1	nt	-9%	?	25%[46.1 µM]	-2%	17%	2%	nt
CCOC(=O)c1ccc(N2CCN(c3cc(Cl)ccc3C)CC2)c(NC(=O)Nc2ccc(OCC)cc2)c1	0.1%	nt	nt	-1%[46.1 µM]	nt	-15%	nt	-1%
COc1cccc(C(=O)Nc2ccc(-n3nncc3C(C)(C)C)cc2)c1	nt	-14%	2%[46.1 µM]	-2%	1%	1%	nt	nt
CCc1c(C)sc2c1CCN(C(=O)Nc1ccc(F)c(Cl)c1)C2c1ccc(F)cc1 (stereo not given)	-1.1%	nt	nt	?	nt	40µM*	nt	10µM*
Cc1c(C(=O)O)sc2ncnc(N3CCCCC3C)c12 (stereo not given)	0.1%	-3%	-4%[46.1 µM]	?	1%	-7%	15%	-12%
O=C1NC2c3c(I)sc(I)c3C(=O)C2O1 (stereo not given)	nt	10%	?	13µM*	nt	40µM*	nt	nt
Cc1cc(NS(=O)(=O)c2ccc(NC(=O)Cc3ccccc3)cc2)nc(C)n1	nt	-9%	1%[46.1 µM]	16%[46.1 µM]	-1%	50%[activator]	14%	nt
Fc1cc(F)cc(NC(=S)NCCCN2CCOCC2)c1	nt	8%	5%	19%	2%	-14%	-4%	nt
Cc1cc(NC(=O)CSc2ccc3nnc(-c4ccc(F)cc4)n3n2)no1	2.4%	10%	8%	11%	-2%	16%	4%	1%
COc1cc(NC(=O)CCS(=O)(=O)c2nc(-c3ccc4c(c3)OCO4)cc(C(F)(F)F)n2)cc(OC)c1OC	-7.1%	nt	?	22%[46.1 µM]	nt	-5%	nt	26%
CCOC(=O)Cc1nn(Cc2nc(-c3ccc(C)cc3)cs2)c(=O)c2ccccc12	nt	5%	nt	nt	-1%	0%	-2%	nt

Bioassay records as filed in PubChem.

Hits appear at their usual frequency. About 4.8% of those tested had a hit in this group.
